# From PubChem BioAssay
# Env fusion inh = blocks HIV Env-driven cell-cell fusion; HeLa-JRFL Env/CEM21 cell fusion, luciferase; inhibition, % at 12.3 µM; actives 1.1% (n = 360,000);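 active = mean replicate inhibition score of at least 50 and every replicate individually at or above 50; inconclusive = only one of the two criteria met; inactive = mean below 50 and not all replicates reaching 50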;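 also: 0% = plate neutral controls and 100% = maraviroc near 300 nM; one replicate is shown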
# UUG fidelity = modulators of start codon recognition fidelity in yeast; S. cerevisiae UUG-firefly luciferase reporter, luminescence/redox ratio; activity score, % at 18.7 µM; actives 0.13% (n = 350,000); AID 602363;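 active = replicate mean at a twofold rise or more, about +100% in these data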;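 also: firefly luciferase made from a UUG start codon reports start codon fidelity; reporter light over untreated wells divided by growth signal over untreated wells; some hits fall short of that in this replicate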
# * marks the source's active call; other numbers are inactive results; ? = inconclusive; [ ] = remark or other dose. These rows are one share of the data (hit frequency here may not be typical).
# Below each compound: Env fusion inh | UUG fidelity
> C[C@@H]1CN([C@@H](C)CO)C(=O)c2cc(C#CC3CC3)cnc2O[C@@H]1CN(C)C(=O)c1ccc(F)cc1
→ -1[16.7 µM] | 1
> C[C@H]1CN([C@@H](C)CO)S(=O)(=O)c2ccc(-c3cccnc3)cc2O[C@@H]1CN(C)C(=O)c1cccc(F)c1
→ -32[16.7 µM] | 214*
> C[C@@H]1CN([C@H](C)CO)C(=O)Cc2cc(NC(=O)Nc3ccccc3)ccc2O[C@H]1CN(C)CC1CC1
→ 9[16.7 µM] | 8
> C[C@H](CO)N1C[C@H](C)[C@@H](CN(C)Cc2ccccc2)Oc2ccc(NC(=O)CCC(F)(F)F)cc2C1=O
→ -3[16.7 µM] | -12
> C[C@@H]1CN([C@@H](C)CO)S(=O)(=O)c2ccc(-c3cncnc3)cc2O[C@H]1CN(C)CC1CC1
→ -18[16.7 µM] | -14
> C[C@@H]1CN([C@@H](C)CO)C(=O)c2cc(NC(=O)Cc3ccccc3)ccc2O[C@@H](C)CCCCO[C@H]1CN(C)Cc1ccc(C(F)(F)F)cc1
→ 64*[16.7 µM] | 10
> C[C@H](O)C#Cc1ccc2c(c1)O[C@@H](CN(C)C(=O)CC1CC1)[C@H](C)CN([C@@H](C)CO)S2(=O)=O
→ -39[16.7 µM] | -3
> COc1ccc(NC(=O)N[C@@H]2CC[C@H](CCNC(=O)CCN3CCCCC3)O[C@@H]2CO)cc1
→ 17[16.7 µM] | -6
> C[C@H](O)C#Cc1ccc2c(c1)O[C@H](CN(C)Cc1ccccn1)[C@@H](C)CN([C@H](C)CO)S2(=O)=O
→ -23[16.7 µM] | -5
> C[C@H](CO)N1C[C@H](C)[C@@H](CN(C)C(=O)Nc2ccc3c(c2)OCO3)Oc2cc(C#Cc3ccccc3)ccc2S1(=O)=O
→ ? | 0
> C[C@H]1CN([C@@H](C)CO)C(=O)c2cc(/C=C/c3ccccc3)cnc2O[C@@H]1CN(C)C(=O)CN(C)C
→ 15[16.7 µM] | 2
> C[C@H]1CN([C@@H](C)CO)S(=O)(=O)c2ccc(C#CC(C)(C)O)cc2O[C@H]1CN(C)CC1CC1
→ 1[16.7 µM] | 8
> C[C@H](CO)N1C[C@H](C)[C@H](CN(C)C(=O)Cc2ccccc2)Oc2cc(C#Cc3ccccc3F)ccc2S1(=O)=O
→ 11[16.7 µM] | -15
> C[C@@H]1CCCCO[C@H](CN(C)CC2CCCCC2)[C@H](C)CN([C@H](C)CO)C(=O)c2cc(NC(=O)CCC(F)(F)F)ccc2O1
→ 14[16.7 µM] | 14
> COc1ccc(NC(=O)Nc2ccc3c(c2)C(=O)N([C@H](C)CO)C[C@@H](C)[C@H](CN(C)S(=O)(=O)c2ccc(OC)cc2)OCCCC[C@H](C)O3)cc1
→ 18[16.7 µM] | -10

# The results go on.
# Below each compound: Env fusion inh | UUG fidelity
> Cc1ccc(S[C@]2(C(=O)NCCCN(C)C)CC(=O)N(C3CCCCC3)[C@@H]2c2ccc(CO)cc2I)cc1
→ -17[16.7 µM] | 12
> C[C@H]1CN([C@@H](C)CO)C(=O)c2cc(NC(=O)Nc3ccccc3)ccc2O[C@@H]1CN(C)Cc1ccc(Cl)c(Cl)c1
→ 5[16.7 µM] | -1
> CO[C@H]1CN(C)C(=O)c2cc(NS(=O)(=O)c3ccc(F)cc3)ccc2OC[C@@H](C)NC[C@H]1C
→ 10[16.7 µM] | -3
> C[C@@H]1CN([C@H](C)CO)C(=O)Cc2cc(NC(=O)Cn3cnnn3)ccc2O[C@H]1CN(C)CC1CCCCC1
→ 11[16.7 µM] | -17
> C[C@@H]1CN([C@@H](C)CO)C(=O)c2cccc(NC(=O)c3nc4ccccc4s3)c2O[C@H]1CN(C)Cc1ccc(-c2ccccc2)cc1
→ -22[16.7 µM] | 4
> NCCCCCNC(=O)[C@@H]1C[C@@H]2C(=O)N[C@@H](Cc3ccccc3)C(=O)N2[C@@H]1c1ccc(O)cc1
→ -11[16.7 µM] | -10
> C[C@@H]1CN([C@H](C)CO)C(=O)c2cc(-c3cccc(C#N)c3)cnc2O[C@@H]1CN(C)C(=O)c1cnccn1
→ 0[16.7 µM] | -7
> CN(C)CC(=O)N1[C@H](C#N)[C@H](c2ccc(-c3cccc(C(=O)N(C)C)c3)cc2)[C@H]1CO
→ -1[16.7 µM] | 22
> C[C@@H]1CN([C@@H](C)CO)C(=O)c2cc(NC(=O)Nc3cccc4ccccc34)ccc2O[C@H]1CN(C)Cc1ccccc1
→ -11[16.7 µM] | 1
> CCCNC(=O)C[C@H]1CC[C@@H]2[C@H](COc3ccc(NC(=O)c4cccc(OC)c4)cc3C(=O)N2C)O1
→ -1[16.7 µM] | 18
> CCS(=O)(=O)NCC[C@H]1CC[C@H](NS(=O)(=O)c2ccccc2C)[C@@H](CO)O1
→ 6[16.7 µM] | -2
> COc1ccc(-c2ccc3c(c2)O[C@@H](CN(C)Cc2cccnc2)[C@@H](C)CN([C@@H](C)CO)S3(=O)=O)cc1
→ 19[16.7 µM] | -5
> O=C(NCC[C@@H]1CC[C@@H](NS(=O)(=O)c2cccc(F)c2)[C@H](CO)O1)C1CC1
→ -7[16.7 µM] | 10
> CCC(=O)N(C)C[C@@H]1Oc2cc(C#CCC3CCCC3)ccc2S(=O)(=O)N([C@H](C)CO)C[C@@H]1C
→ ? | 21
> COc1ccc(S(=O)(=O)N[C@H]2C=C[C@H](CC(=O)N3CCC(Cc4ccccc4)CC3)O[C@H]2CO)cc1
→ 15[16.7 µM] | 2

# (listing goes on)
# Below each compound: Env fusion inh | UUG fidelity
> CCNC(=O)C[C@@H]1CC[C@H]2[C@@H](COc3ccc(NC(=O)Nc4cccc(C)c4)cc3C(=O)N2C)O1
→ 19[16.7 µM] | 0
> CC(C)C#Cc1ccc2c(c1)O[C@@H](CN(C)CC1CCOCC1)[C@@H](C)CN([C@@H](C)CO)S2(=O)=O
→ 7[16.7 µM] | 29
> CC(C)NC(=O)Nc1ccc2c(c1)C(=O)N([C@H](C)CO)C[C@@H](C)[C@@H](CN(C)S(=O)(=O)c1cccs1)O2
→ 10[16.7 µM] | 1
> Cc1ccccc1-c1cnc2c(c1)C(=O)N([C@H](C)CO)C[C@@H](C)[C@H](CN(C)Cc1ccccc1F)O2
→ 39[16.7 µM] | 16
> O=C(C[C@H]1C=C[C@H](NS(=O)(=O)c2cccc(F)c2)[C@H](CO)O1)NCc1ccc2c(c1)OCO2
→ -6[16.7 µM] | -8
> C[C@H]1CCCCO[C@@H](CN(C)S(=O)(=O)c2ccccc2)[C@@H](C)CN([C@@H](C)CO)C(=O)c2cc(NS(=O)(=O)c3ccc(F)cc3)ccc2O1
→ 33[16.7 µM] | 40
> O=C(NCC[C@@H]1CC[C@H](NC(=O)c2cnccn2)[C@H](CO)O1)Nc1ccc(Cl)cc1
→ 4[16.7 µM] | 13
> C[C@@H]1CN([C@H](C)CO)C(=O)c2cc(-c3cncnc3)cnc2O[C@H]1CN(C)CC1CCOCC1
→ 8[16.7 µM] | -10
> Cc1ccc(S(=O)(=O)Nc2ccc3c(c2)C(=O)N([C@@H](C)CO)C[C@H](C)[C@@H](CN(C)Cc2ccc4c(c2)OCO4)OCCCC[C@H](C)O3)cc1
→ -8[16.7 µM] | 37
> COc1ccc(NC(=O)Nc2ccc3c(c2)CC(=O)N([C@H](C)CO)C[C@H](C)[C@H](CN(C)Cc2ccc4c(c2)OCO4)O3)cc1
→ -22[16.7 µM] | 10
> O=C(O)C[C@@H]1C[C@@H]2c3cc(NC(=O)C4CCC4)ccc3O[C@@H]2[C@@H](CO)O1
→ 11[16.7 µM] | 35
> Cc1noc(C)c1S(=O)(=O)Nc1ccc2c(c1)C(=O)N([C@H](C)CO)C[C@@H](C)[C@@H](CN(C)C(=O)Nc1ccc3c(c1)OCO3)OCCCC[C@@H](C)O2
→ 6[16.7 µM] | -4
> Cc1ccccc1-c1cnc2c(c1)C(=O)N([C@@H](C)CO)C[C@@H](C)[C@@H](CN(C)C(=O)c1ccncc1)O2
→ -3[16.7 µM] | 0
> O=C(C[C@@H]1CC[C@H](NC(=O)c2ccccc2)[C@@H](CO)O1)NCc1ccc(Oc2ccccc2)cc1
→ 13[16.7 µM] | -13
> N#C[C@H]1[C@H](c2ccc(C3=CCCCC3)cc2)[C@@H](CO)N1S(=O)(=O)c1cccc(F)c1
→ 17[16.7 µM] | -9

# Continuation.
# Below each compound: Env fusion inh | UUG fidelity
> C[C@@H]1CN([C@H](C)CO)C(=O)c2cc(C#Cc3cccnc3)cnc2O[C@@H]1CN(C)Cc1ccc(F)cc1
→ 5[16.7 µM] | -19
> COc1ccccc1-c1cnc2c(c1)C(=O)N([C@H](C)CO)C[C@H](C)[C@H](CN(C)C(=O)c1ccccc1)O2
→ -26[16.7 µM] | 40
> COc1ccc(S(=O)(=O)Nc2ccc3c(c2)CC(=O)N([C@@H](C)CO)C[C@H](C)[C@@H](CN(C)C(=O)NC2CCCCC2)O3)cc1
→ -2[16.7 µM] | -6
> C[C@@H]1CN([C@@H](C)CO)C(=O)c2cc(C#CC3CCCC3)cnc2O[C@H]1CN(C)C(=O)Cc1ccccn1
→ 3[16.7 µM] | 13
> C[C@@H](NC(=O)C[C@H]1C=C[C@@H](NS(=O)(=O)c2cccc(F)c2)[C@H](CO)O1)c1ccccc1
→ 10[16.7 µM] | -4
> O=C(Nc1ccccc1F)N[C@H]1CC[C@@H](CCNS(=O)(=O)c2ccccc2)O[C@@H]1CO
→ -8[16.7 µM] | 5
> C/C=C/c1ccc2c(c1)O[C@H](CN(C)C(=O)C1CCOCC1)[C@@H](C)CN([C@H](C)CO)S2(=O)=O
→ -1[16.7 µM] | 5
> COc1ccc(NC(=O)Nc2ccc3c(c2)C(=O)N([C@@H](C)CO)C[C@@H](C)[C@H](CN(C)C(=O)NC(C)C)O3)cc1
→ -20[16.7 µM] | -1
> COc1ccc(NC(=O)N(C)C[C@H]2Oc3ccc(NS(=O)(=O)c4ccc(OC)cc4)cc3CC(=O)N([C@H](C)CO)C[C@@H]2C)cc1
→ 7[16.7 µM] | -1
> CC(C)CC#Cc1cnc2c(c1)C(=O)N([C@H](C)CO)C[C@@H](C)[C@H](CN(C)C(=O)Cc1cccnc1)O2
→ -10[16.7 µM] | 3
> CN(C)C(=O)C[C@@H]1CC[C@H]2[C@@H](COC[C@@H](O)CN2CC2CCCCC2)O1
→ -10[16.7 µM] | -10
> C[C@@H]1CN([C@H](C)CO)C(=O)c2cccc(NC(=O)C3CC3)c2O[C@H]1CN(C)Cc1ccc(Cl)c(Cl)c1
→ -6[16.7 µM] | 2
> CO[C@H]1CN(C)C(=O)c2ccc(NS(C)(=O)=O)cc2OC[C@@H](C)N(CC2CCOCC2)C[C@@H]1C
→ 5[16.7 µM] | -6
> C[C@@H]1CN([C@H](C)CO)C(=O)c2cccc(NC(=O)NC3CCCCC3)c2O[C@H]1CN(C)Cc1ccncc1
→ -11[16.7 µM] | -15
> C[C@@H]1CCCCO[C@@H](CN(C)Cc2ccccc2)[C@@H](C)CN([C@H](C)CO)C(=O)c2cc(NS(=O)(=O)c3ccc(Cl)cc3)ccc2O1
→ -14[16.7 µM] | 1

# (continued)
# Below each compound: Env fusion inh | UUG fidelity
> C[C@H]1CN([C@@H](C)CO)C(=O)c2cc(-c3ccc(F)cc3)cnc2O[C@@H]1CN(C)Cc1cccnc1
→ 26[16.7 µM] | -14
> C[C@@H]1CN([C@H](C)CO)C(=O)c2cc(C#Cc3cccnc3)cnc2O[C@@H]1CN(C)Cc1ccccc1
→ 6[16.7 µM] | -4
> CC(=O)N(C)C[C@@H]1Oc2ncc(C3=CCCC3)cc2C(=O)N([C@@H](C)CO)C[C@H]1C
→ 2[16.7 µM] | 11
> CN(C)C(=O)C[C@@H]1CC[C@H]2[C@@H](COc3ccc(NC(=O)c4cnccn4)cc3C(=O)N2C)O1
→ -4[16.7 µM] | -9
> C[C@@H]1CCCCO[C@@H](CN(C)Cc2ccc(C(=O)O)cc2)[C@H](C)CN([C@H](C)CO)C(=O)c2cc(NS(=O)(=O)c3cn(C)cn3)ccc2O1
→ 18[16.7 µM] | -2
> CCCC(O)C#Cc1cnc2c(c1)C(=O)N([C@H](C)CO)C[C@H](C)[C@H](CN(C)Cc1ccccc1)O2 (stereo partly drawn)
→ -2[16.7 µM] | 10
> C[C@H]1CN([C@@H](C)CO)S(=O)(=O)c2ccc(/C=C/c3ccccc3)cc2O[C@@H]1CN(C)Cc1cccnc1
→ 13[16.7 µM] | -9
> C[C@@H]1CN([C@@H](C)CO)C(=O)c2cc(N(C)C)ccc2O[C@@H]1CN(C)Cc1ccc(C(=O)Nc2ccccc2N)cc1
→ -14[16.7 µM] | -6

# Printed as active in Env fusion inh (from the list above):
# Below each compound: Env fusion inh | UUG fidelity
> C[C@@H]1CN([C@@H](C)CO)C(=O)c2cc(NC(=O)Cc3ccccc3)ccc2O[C@@H](C)CCCCO[C@H]1CN(C)Cc1ccc(C(F)(F)F)cc1
→ 64*[16.7 µM] | 10

# A draw from above in order of length of the SMILES, smallest number first:
# Below each compound: Env fusion inh | UUG fidelity
> C[C@@H]1CN([C@H](C)CO)C(=O)c2cc(C#Cc3cccnc3)cnc2O[C@@H]1CN(C)Cc1ccccc1
→ 6[16.7 µM] | -4
> C[C@H]1CN([C@@H](C)CO)C(=O)c2cc(-c3ccc(F)cc3)cnc2O[C@@H]1CN(C)Cc1cccnc1
→ 26[16.7 µM] | -14
> C[C@H]1CN([C@@H](C)CO)S(=O)(=O)c2ccc(/C=C/c3ccccc3)cc2O[C@@H]1CN(C)Cc1cccnc1
→ 13[16.7 µM] | -9
> C[C@@H]1CN([C@@H](C)CO)C(=O)c2cc(N(C)C)ccc2O[C@@H]1CN(C)Cc1ccc(C(=O)Nc2ccccc2N)cc1
→ -14[16.7 µM] | -6
> C[C@@H]1CCCCO[C@@H](CN(C)Cc2ccc(C(=O)O)cc2)[C@H](C)CN([C@H](C)CO)C(=O)c2cc(NS(=O)(=O)c3cn(C)cn3)ccc2O1
→ 18[16.7 µM] | -2
